High-throughput results from PubChem BioAssay.
Choline anaer gr = inhibitors of anaerobic choline-dependent gram-negative bacterial growth. Gram-negative bacterium anaerobic choline minimal medium, absorbance growth; hits give low values; many inactives read as strong as hits in the columns shown. calls only. 55,000 tested, 0.2% active;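 active = growth z-score on choline under -2 at 7 or 20 h with little or no fall on glycerol, limits in tiers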;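 also: stock transfer was 300 nL into about 50 µL; the organism is E. coli; final concentration not given here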
Choline anaer gr early = further read-out of Choline anaer gr, marked with its call; z-score; measured here: choline growth z-score, timepoint 1;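 score of optical density at 7 h as mean of two plates; lower means less growth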
* marks the source's active call; other numbers are inactive results; & = joins results of further samples.

How did Cc1cccc(-c2cnc(Nc3cccc(C(=O)NCCC(C)C)c3)nc2)c1 do in these assays?
Choline anaer gr: inactive; Choline anaer gr early: -0.83

How did CCn1c(=O)c(N2CCC(C(=O)Nc3ccc(F)cc3)CC2)c(C)n(-c2ccccc2)c1=O do in these assays?
Choline anaer gr: inactive; Choline anaer gr early: 0.66

How did Cc1nc(N2CCN(C)CC2)c2c(C)c(C(=O)NCCN(C)C)sc2n1 do in these assays?
Choline anaer gr: inactive; Choline anaer gr early: 0.08

How did O=C(CC1CCCC1)N1CCCN(c2ccc(=O)n(-c3ccccc3)n2)CC1 do in these assays?
Choline anaer gr: inactive; Choline anaer gr early: 0.19

How did COc1ccnc2c1c(=O)n(CC(=O)NC1CCCCC1)c(=O)n2C do in these assays?
Choline anaer gr: inactive; Choline anaer gr early: -1.1

Results for Cc1[nH]c(C)c(S(=O)(=O)N2CCC(C(=O)Nc3ccc4c(c3)OCO4)CC2)c1C(=O)N1CCCCC1 ?
Choline anaer gr: inactive; Choline anaer gr early: 0.34

Results for Cc1ccc(Sc2nccnc2N2CCCC(C(=O)NCc3cccnc3)C2)cc1 (configuration not stated) ?
Choline anaer gr: inactive; Choline anaer gr early: -0.25

What do the screens show for `O=S1(=O)NC(c2ccc(F)c(F)c2)Nc2ccccc21` (configuration not stated)?
Choline anaer gr: inactive; Choline anaer gr early: -2.8

How did COC(=O)c1cnc(N2CCN(c3ccccc3)CC2)c2ccccc12 do in these assays?
Choline anaer gr: inactive; Choline anaer gr early: -0.1

How did Cc1noc(C)c1C1CCCN1C(=O)c1cc(C(F)(F)F)n(C)n1 (configuration not stated) do in these assays?
Choline anaer gr: inactive; Choline anaer gr early: 0.56

What do the screens show for `CC(C)NC(=O)C1CCCN(C(=O)c2ccc(NC(=O)c3ccccc3)cc2)C1` (configuration not stated)?
Choline anaer gr: inactive; Choline anaer gr early: -0.25

How did Cc1sc(-c2cc(C(F)(F)F)on2)cc1S(=O)(=O)NCCC(C)C do in these assays?
Choline anaer gr: inactive; Choline anaer gr early: 0.22

Continued; the last 4 above are carried over.
How did COC(=O)c1cnc(N2CCN(c3ccccc3)CC2)c2ccccc12 do in these assays?
Choline anaer gr: inactive; Choline anaer gr early: -0.1

How did Cc1noc(C)c1C1CCCN1C(=O)c1cc(C(F)(F)F)n(C)n1 (configuration not stated) do in these assays?
Choline anaer gr: inactive; Choline anaer gr early: 0.56

What do the screens show for `CC(C)NC(=O)C1CCCN(C(=O)c2ccc(NC(=O)c3ccccc3)cc2)C1` (configuration not stated)?
Choline anaer gr: inactive; Choline anaer gr early: -0.25

How did Cc1sc(-c2cc(C(F)(F)F)on2)cc1S(=O)(=O)NCCC(C)C do in these assays?
Choline anaer gr: inactive; Choline anaer gr early: 0.22

What do the screens show for `CC1CCN(S(=O)(=O)c2ccc3c(c2)N(CC(=O)N2CCc4ccccc42)C(=O)CC(C)S3)CC1` (configuration not stated)?
Choline anaer gr: inactive; Choline anaer gr early: -0.33

How did Cc1nc2ccccc2c2c1C(=O)N(c1ccc(C(=O)OCC(=O)c3ccc(Cl)cc3)cc1)C2=O do in these assays?
Choline anaer gr: inactive; Choline anaer gr early: -2.1

Results for O=C(CCCc1nc2cccnc2n1C1CCN(Cc2ccccc2)CC1)NC1CCCCC1 ?
Choline anaer gr: inactive; Choline anaer gr early: 0.36

Results for CC(Oc1ccc(C(C)(C)C)cc1)c1nc(-c2ccncc2)no1 (configuration not stated) ?
Choline anaer gr: inactive; Choline anaer gr early: -0.29

Results for CCC(=O)Nc1nn2c(-c3ccccc3)nnc2s1 ?
Choline anaer gr: inactive; Choline anaer gr early: -0.02

What do the screens show for `Cc1ccc2c(c1)-c1onc(C(=O)NC3CC3)c1CO2`?
Choline anaer gr: inactive; Choline anaer gr early: 0.76

Results for Cc1cc(C)c2c(n1)SCCN2C(=O)CCC(=O)NCC1CCCO1 (configuration not stated) ?
Choline anaer gr: inactive; Choline anaer gr early: -0.08

How did O=C(c1ccoc1)N1CCC(c2nc(C3CC3)n[nH]2)CC1 do in these assays?
Choline anaer gr: inactive; Choline anaer gr early: 0.02

What do the screens show for `CN(C)c1ncc(C(=O)Nc2cccc(F)c2)cn1`?
Choline anaer gr: inactive; Choline anaer gr early: -0.23

What do the screens show for `Cc1nc(CNC(=O)[C@H]2CSCN2S(=O)(=O)c2ccc(F)c(Cl)c2)cs1`?
Choline anaer gr: inactive; Choline anaer gr early: 1.4

How did CCOC(=O)c1cc(S(=O)(=O)N2CCCC2C(=O)NC(C)(C)CC)cn1C (configuration not stated) do in these assays?
Choline anaer gr: inactive; Choline anaer gr early: -0.63

How did CN1C(=O)CSc2cnn(CC(=O)NC3CCCC3)c(=O)c21 do in these assays?
Choline anaer gr: inactive; Choline anaer gr early: -1.1

How did Cc1ccc(N(Cc2nc3nc(C)cc(C)n3n2)C(=O)c2ccccc2F)cc1 do in these assays?
Choline anaer gr: inactive; Choline anaer gr early: 0.51

Results for Cc1cc(C)nc(N2CCN(c3cc(C)nc4c(-c5ccc(F)cc5)c(C(F)(F)F)nn34)CC2)n1 ?
Choline anaer gr: inactive; Choline anaer gr early: -0.21

What do the screens show for `O=C1Nc2cc(C(=O)N3CCOCC3)ccc2N2CCCCC12` (configuration not stated)?
Choline anaer gr: inactive; Choline anaer gr early: 0.07

How did CCCNC(=O)c1sc(-n2nc(C)c(Cc3ccccc3)c2C)nc1C do in these assays?
Choline anaer gr: inactive; Choline anaer gr early: 0.05

How did CCOC(=O)CC1C(=O)NCCN1Cc1ccoc1 (configuration not stated) do in these assays?
Choline anaer gr: inactive; Choline anaer gr early: -1.2

Results for C=C(C)Cn1c(CCCN2CCCCC2)nc2ccccc21 ?
Choline anaer gr: inactive; Choline anaer gr early: 0.11

What do the screens show for `Cc1ccc(C2CCCCCN2C(=O)Nc2ccc(F)cc2F)s1` (configuration not stated)?
Choline anaer gr: inactive; Choline anaer gr early: -0.08

What do the screens show for `COc1cc(OC)c(NC(=O)NCCc2nc3cccnc3n2-c2ccccc2)cc1Cl`?
Choline anaer gr: inactive; Choline anaer gr early: -0.42

How did Cc1cc(C)c2c(-n3cccc3)nn(CCCC(=O)Nc3ccc(Cl)cc3)c2n1 do in these assays?
Choline anaer gr: inactive; Choline anaer gr early: 2.5

Results for O=C(CCn1cnc2c(-c3ccccc3)noc2c1=O)NC1CC1 ?
Choline anaer gr: inactive; Choline anaer gr early: 0.59

How did CCOC(=O)c1c(S(=O)(=O)N2CCC(C(=O)Nc3ccc(OC)cc3OC)CC2)c(C)n(C)c1C do in these assays?
Choline anaer gr: inactive; Choline anaer gr early: -0.76

How did Cn1cc2c(N3CCCC3)nc(C(=O)NC3CC3)nc2n1 do in these assays?
Choline anaer gr: inactive; Choline anaer gr early: 0.89

What do the screens show for `COc1ccc(-c2nc(CN3CCC(C(=O)NCc4ccccc4)CC3)c(C)o2)cc1OC`?
Choline anaer gr: inactive; Choline anaer gr early: 1.2

What do the screens show for `Cc1ccc(O)c(Nc2cc(-c3ccccc3)nc(C)n2)c1`?
Choline anaer gr: inactive; Choline anaer gr early: 0.62

What do the screens show for `Nc1c(C(=O)N2CCOCC2)oc2ccccc12`?
Choline anaer gr: inactive; Choline anaer gr early: -0.52

How did COc1ccc(NC(=O)Cn2nc3ccc(SCc4ccc(Cl)cc4)nn3c2=O)cc1OC do in these assays?
Choline anaer gr: inactive; Choline anaer gr early: -0.72

What do the screens show for `CCOc1cc2c3c(c1)C(C)=CC(C)(C)N3C(=O)C2=O`?
Choline anaer gr: inactive; Choline anaer gr early: 0.98

Results for Cc1ccc(-c2ccc(-n3nc(C)c(S(=O)(=O)NCCC(C)C)c3C)nn2)cc1 ?
Choline anaer gr: inactive; Choline anaer gr early: 0.5

Results for c1c[nH]c(CN2CCCC(Nc3ncnc4c3CCC4)C2)c1 (configuration not stated) ?
Choline anaer gr: inactive; Choline anaer gr early: -4.8

How did O=c1c2sccc2n2c(SCc3cccc(F)c3)nnc2n1CC1CCCO1 (configuration not stated) do in these assays?
Choline anaer gr: inactive; Choline anaer gr early: -0.46

What do the screens show for `Cc1cc(S(=O)(=O)NCC(c2ccc(N(C)C)cc2)N(C)C)ccc1F` (configuration not stated)?
Choline anaer gr: inactive; Choline anaer gr early: 0.42

Results for O=C(c1ccc2c(c1)OCO2)N1CCC(c2nc3c(nnn3Cc3ccc(F)cc3)c(=O)[nH]2)CC1 ?
Choline anaer gr: inactive; Choline anaer gr early: -2.1

What do the screens show for `O=C(Nc1ccc(Cl)cc1)N1CCC(n2cnc3ccccc3c2=O)CC1`?
Choline anaer gr: inactive; Choline anaer gr early: -0.74

How did Cc1ccsc1-c1nc(-c2cccc(NC(=O)NC(C)C)c2)no1 do in these assays?
Choline anaer gr: inactive; Choline anaer gr early: 0.32

What do the screens show for `Clc1cccc(CSc2nnc(-c3ccc(Br)cc3)o2)c1`?
Choline anaer gr: inactive; Choline anaer gr early: -1.4

Results for Cc1onc(-c2ccccc2Cl)c1C(=O)Nc1cccc2cccnc12 ?
Choline anaer gr: inactive; Choline anaer gr early: 1.1

Results for Cc1nn(-c2nc3ccccc3o2)c2c1C(c1ccc(Cl)cc1)CC(=O)N2 (configuration not stated) ?
Choline anaer gr: inactive; Choline anaer gr early: 0.55

How did CCS(=O)(=O)c1cccc(C(=O)Nc2sc3c(c2C(N)=O)CCC3)c1 do in these assays?
Choline anaer gr: inactive; Choline anaer gr early: 0.49

Results for CCOC(=O)CC1=CC(SCc2ccc(C)cc2C)=Nc2ccccc2N1 ?
Choline anaer gr: inactive; Choline anaer gr early: 1.3

What do the screens show for `COc1ccc(-c2cc(C(=O)NCC(c3ccccc3)N3CCCC3)no2)cc1` (configuration not stated)?
Choline anaer gr: inactive; Choline anaer gr early: 0.96

Results for O=C(Nc1cccc(-c2noc(C3CCCC3)n2)c1)c1cncc(Br)c1 ?
Choline anaer gr: inactive; Choline anaer gr early: 0.13

Results for Cc1ccc(C2C=C(c3ccc(Cl)cc3)Nc3nc(NS(=O)(=O)c4ccc(C)cc4)nn32)cc1 (configuration not stated) ?
Choline anaer gr: inactive; Choline anaer gr early: 1.1

How did O=C(CCc1nc(CSc2nc3ccccc3s2)no1)Nc1cccc(Br)c1 do in these assays?
Choline anaer gr: inactive; Choline anaer gr early: 1.4

What do the screens show for `CCC(=O)N1CCC2(CC1)Nc1ccccc1-n1cccc12`?
Choline anaer gr: inactive; Choline anaer gr early: -0.65

Results for CCNc1cc(C)nc(N2CCN(S(=O)(=O)c3ccc(OCC)cc3)CC2)n1 ?
Choline anaer gr: inactive; Choline anaer gr early: 1.6

Results for Cn1ccnc1SCC(=O)Nc1ccc(Br)cn1 ?
Choline anaer gr: inactive; Choline anaer gr early: -0.42

Results for C=CCN(C)C(=O)c1cc2sccc2n1C ?
Choline anaer gr: inactive; Choline anaer gr early: -1

What do the screens show for `COc1ccc2[nH]cc(CCNC(=O)Cn3nc(C)c4c(C)onc4c3=O)c2c1`?
Choline anaer gr: inactive; Choline anaer gr early: -0.28

How did CC1CSc2ccc(S(=O)(=O)N3CCCC3)cc2N(CC(=O)NCC2CCCO2)C1=O (configuration not stated) do in these assays?
Choline anaer gr: inactive; Choline anaer gr early: 1

How did COc1ccc(Cl)cc1NC(=O)N1CCN(c2nnc(C)c3c(C)n(-c4ccccc4)nc23)CC1 do in these assays?
Choline anaer gr: inactive; Choline anaer gr early: -0.06

Results for Cc1ccc2c(c1)OC(C)CN2S(C)(=O)=O (configuration not stated) ?
Choline anaer gr: inactive; Choline anaer gr early: 0.17

How did COc1cc2[nH]c(=O)n(CCCC(=O)N3CCC(Cc4ccccc4)CC3)c(=O)c2cc1OC do in these assays?
Choline anaer gr: inactive; Choline anaer gr early: -1.5

Results for CN=C1C=C2C(=NC=NC2=Nc2cccc(Br)c2)C=N1 ?
Choline anaer gr: inactive; Choline anaer gr early: 0.25

What do the screens show for `Cc1nn2c(=O)cc(COc3ccc(-c4nc5sc6c(c5c(=O)[nH]4)CCCC6)cc3)nc2s1`?
Choline anaer gr: inactive; Choline anaer gr early: -0.44

Results for CN(C)S(=O)(=O)c1ccc2c(c1)cc(C(=O)NCc1ccccn1)n2Cc1ccncc1 ?
Choline anaer gr: inactive; Choline anaer gr early: 0.66

How did CCNc1oc(-c2ccc(S(=O)(=O)N3CCCC(C)C3)cc2)nc1C#N (configuration not stated) do in these assays?
Choline anaer gr: inactive; Choline anaer gr early: 0.11

Results for O=C1NC(=O)C(c2ccccc2)(c2ccccc2)N1 ?
Choline anaer gr: inactive; Choline anaer gr early: 0.42&0.53&0.43

What do the screens show for `CC(C)OC(=O)CCC/C=C\C[C@@H]1[C@@H](CC[C@@H](O)CCc2ccccc2)[C@H](O)C[C@@H]1O`?
Choline anaer gr: inactive; Choline anaer gr early: 1.1&0.19

2 records picked at random from the list so far, as already listed:
Results for C=CCN(C)C(=O)c1cc2sccc2n1C ?
Choline anaer gr: inactive; Choline anaer gr early: -1

What do the screens show for `CC(C)OC(=O)CCC/C=C\C[C@@H]1[C@@H](CC[C@@H](O)CCc2ccccc2)[C@H](O)C[C@@H]1O`?
Choline anaer gr: inactive; Choline anaer gr early: 1.1&0.19

(cont.)
Results for O=C(c1ccc(-c2noc(C3CC3)n2)cc1)N1CCCN(c2nc3ncccc3o2)CC1 ?
Choline anaer gr: inactive; Choline anaer gr early: 0.79

Results for COCc1cc(C)nc2sc3c(c12)NC(C)N(c1ccc(C)c(Cl)c1)C3=O (configuration not stated) ?
Choline anaer gr: inactive; Choline anaer gr early: 0.64

Results for COc1cccc2cc3c(=O)n(-c4ccccc4)nc-3oc12 ?
Choline anaer gr: inactive; Choline anaer gr early: -1.5

Results for CN(CCCNC(=O)c1cc(S(=O)(=O)N2CCSCC2)ccc1Cl)c1ccccc1 ?
Choline anaer gr: inactive; Choline anaer gr early: 2.3

Results for O=C(NC1CCCCC1)c1cnn(-c2ccccc2)c1 ?
Choline anaer gr: inactive; Choline anaer gr early: -1.2

This is a subset, so the mix of outcomes need not match the whole.
